Bioassay records (PubChem BioAssay)
HIV TAR-Tat – HIV-1 TAR-Tat binding disruption; HIV-1 TAR RNA, Tat peptide displacement FRET; hits give high values; z-score (no concentration beside the values); 0.6% of 100,000 active; AID 1259389;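 further: score is relative to mean and SD of negative controls; some compounds called inactive have numbers as strong as hits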
CDC25B CDK2 inh – human CDC25B-CDK2/CyclinA binding inhibition | P30305+P24941 | HTRF CDC25B-CDK2/CyclinA binding, anti-His/anti-Flag; hits give high values | z-score (no concentration beside the values) | 0.72% of 94,000 active | AID 1259370;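 further: score is relative to mean and SD of negative controls; strong numbers were not always called active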
* hit, by the source's call; / = no result given.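 How the source made its calls: active means z-score from 3 up in half or more of its runs; inactive means the rest.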

SMILES | HIV TAR-Tat | CDC25B CDK2 inh
c1ccc(OCCOc2ccccn2)nc1 | / | -2
Cc1nn2c(=O)cc(COC(=O)COc3ccc(F)cc3)nc2s1 | 0.43 | /
Cn1c(=O)n(Cc2ccccc2Cl)c(=O)c2c1nc1n2CCN1Cc1ccccc1 | 2.2 | /
CCN1CCN(c2ncc3c(n2)CCN(CCc2ccccc2)C3)CC1 | 0.25 | /
O=C(NCc1ccccc1)c1cccn2c(=O)c3cc4c(cc3nc12)OCO4 | 0.72 | /
CC(=O)N(CCN(C)C)c1nc2c(F)cccc2s1 | 1.9 | /
COC(=O)c1cnn2c(C(F)(F)F)cc(-c3ccc(F)cc3)nc12 | 0.82 | -1.8
CC(=O)N(C(C)=O)N(C)c1nc(-c2ccccc2)ns1 | / | -1.2
Cc1cc(NC(=O)c2cc(-c3ccccc3)c(C(F)(F)F)s2)on1 | / | -1.9
CCOC(=O)COc1nc2c(cnn2-c2ccccc2)c(=O)n1C | 0.72 | 1.2
Cc1cc(C)cc(-n2c(C)cc(C(=O)C(=O)Nc3nccs3)c2C)c1 | 1.4 | -2.2
O=C(Nc1cccc(-c2nc3ncccc3o2)c1)c1cccc2c(Br)cccc12 | / | -5.5
COCCN1C(=O)c2[nH]nc(-c3ccccc3O)c2C1c1ccc(O)c(OC)c1 (configuration not stated) | -0.8 | -1.2
CC(C)(C)c1cc(NC(=O)C2COc3ccccc3O2)n[nH]1 (configuration not stated) | / | -0.73
CCCCNC(=O)c1noc2ncnc(N3CCCC3)c12 | -0.51 | /
O=c1cc(-c2ccccc2)nc2cc(-c3cccs3)[nH]n12 | / | -0.57
Cn1c(=O)oc2cc(S(=O)(=O)CCC(=O)NCc3cccnc3)ccc21 | -2.7 | /
Cc1cc(-c2ccc(C)c(S(=O)(=O)N(Cc3ccc(F)cc3)Cc3cccnc3)c2)on1 | 1.2 | /
Cc1ccc(C(=O)O)cc1-n1c(C)ccc1C | 8.6 | 0.48
COc1ccc2nc(SCCO)nc(C)c2c1 | -1.9 | -1.4
O=C(Nc1nnc2n1CCCS2)C1CC1 | 1.9 | /
NC(N)=NC(N)=Nc1ccc2c(c1)OCCO2 | / | -1.6
O=C(NCCCN1CCCC1=O)c1cnc(N2CCOCC2)nc1 | 0.99 | /
COc1ccc2c(c1)NC(c1ccc(N(C)C)cc1)=NC(c1cccs1)=N2 | 1.8 | 0.62
Cn1c(-c2ccc(F)cc2)cnc1NCc1ccccc1Cl | -0.64 | -2.5
COc1ccc(-c2noc(NCCc3ccc(SC)cc3)n2)cc1 | -1.3 | /
O=C(Cn1ccc2cc(S(=O)(=O)N3CCCCC3)ccc21)N1CCc2ccccc21 | -0.14 | /
CCCCOc1ccc(N2C(=O)CC(N3CCN(c4ccc(F)cc4)CC3)C2=O)cc1 (configuration not stated) | / | 0.47
COc1cccc(NC(=O)Nc2cn(C)c(=O)c3ccccc23)c1 | -0.35 | /
N#CCS(=O)(=O)Cc1cccs1 | / | -1.9
CCS(=O)(=O)N1CCC2(CC1)OC(=O)C(C)=C2C(=O)Nc1ccc(Cl)cc1 | 1.7 | /
CCOC(=O)CSc1nc(SCC(=O)OCC)c2c3c([nH]c2n1)CCCC3 | 1.1 | -0.74
Fc1ccccc1-c1nn2c(C(F)(F)F)nnc2s1 | 0.75 | -0.41
O=C(CSc1ccc2nnc(-c3ccc(Cl)cc3)n2n1)NC1CCCC1 | / | -0.38
O=C(CSc1nnc2c(n1)[nH]c1ccccc12)Nc1nc2c(s1)CCCC2 | / | -1.9
CCOC(=O)c1sc(N2C(=O)c3oc4ccccc4c(=O)c3C2c2ccc(N(C)C)cc2)nc1C (configuration not stated) | 0.27 | 0.24
O=C(CN1C(=O)CC(c2ccccc2)S(=O)(=O)c2ccccc21)c1ccccc1 (configuration not stated) | -1.3 | -2.1
CCOC(=O)c1c(NC(=O)CN(CC)CC)sc2c1CCN(C(=O)OCC)C2 | / | -1.8
COCc1[nH]nc2c1C(c1cccc(Br)c1)C(C#N)=C(N)O2 (configuration not stated) | 0.79 | -1.1
CCC(C)c1nn2c(=O)c(NC(=O)c3ccc(C)cc3)cnc2s1 (configuration not stated) | -0.85 | -0.32
O=C(CC(=S)c1cccs1)c1ccncc1 | / | -2.5
CCN1CCN(C(=O)c2oc3ccccc3c2NC(=O)C2CCCC2)CC1 | 0.34 | /
CC(C)CCNC(=O)c1c[nH]c2ccc(S(=O)(=O)N3CC(C)CC(C)C3)cc2c1=O (configuration not stated) | / | -3.3
O=c1ccc(-c2ccc(S(=O)(=O)N3CCC(CN4CCc5ccccc5C4)CC3)s2)n[nH]1 | 0.57 | /
CCn1c(SCC(=O)c2ccccc2)nnc1-c1cccc(Cl)c1 | -0.12 | -1.7
COc1ccc(Nc2nncc(=O)[nH]2)c(OC)c1 | -0.07 | -0.83
COc1ccc(-c2noc(NCc3cccs3)n2)cc1OC | 0.35 | /
CCOC(=O)N1CCN(C(=O)CCc2nc3sc4c(c3c(=O)[nH]2)CCCC4)CC1 | -0.1 | -1.5
CC(=O)c1c(C)[nH]c(C(=O)N2CCCCC2)c1C | / | 0.14
O=C(CSc1nc2ccccc2o1)Nc1ccccc1Cl | / | -3
Cc1cc(=O)n(-c2ccc(O)cc2)[nH]1 | 0.07 | -0.4
COC(=O)c1scc(-c2ccccc2)c1S(=O)(=O)N1CCc2ccccc2C1 | 0.95 | /
Cc1ccc(NS(=O)(=O)c2cc3c4c(c2)CC(=O)N4CCC3)cc1C | 2.1 | /
CCCCNS(=O)(=O)c1cc2c(cc1C)NC(=O)CO2 | 1.7 | /
CC1CC(C)CN(S(=O)(=O)c2ccc(CN3C(=O)c4cccnc4C3=O)s2)C1 (configuration not stated) | 0.28 | /
CC(C)C(=O)N1c2nc(C(=O)N3CCOCC3)nn2C2(CCCCC2)[C@@H]2CCCC[C@@H]21 | 0.81 | -1.6
Cc1nc2c(ccc3nc(NC(=O)c4ccc(S(=O)(=O)N5CCCCC5C)cc4)sc32)s1 (configuration not stated) | / | -0.45
Cc1[nH]c2ccccc2c(=O)c1CN1CCCC(C)C1 (configuration not stated) | / | -0.65
O=C(CSc1ccc(-c2cccs2)nn1)N1CCc2ccccc21 | 0.88 | /
CCCCn1c(=O)c(C)c(C)c2ccccc21 | / | -1.4

As entered above:
For CDC25B CDK2 inh, CC(=O)c1c(C)[nH]c(C(=O)N2CCCCC2)c1C is listed with 0.14
For CDC25B CDK2 inh, O=C(CSc1nc2ccccc2o1)Nc1ccccc1Cl is listed with -3
For HIV TAR-Tat, COc1ccc(Nc2nncc(=O)[nH]2)c(OC)c1 is listed with -0.07
For HIV TAR-Tat, O=C(CSc1ccc(-c2cccs2)nn1)N1CCc2ccccc21 is listed with 0.88
For CDC25B CDK2 inh, Cc1nc2c(ccc3nc(NC(=O)c4ccc(S(=O)(=O)N5CCCCC5C)cc4)sc32)s1 (configuration not stated) is listed with -0.45
For HIV TAR-Tat, CCN1CCN(C(=O)c2oc3ccccc3c2NC(=O)C2CCCC2)CC1 is listed with 0.34
For HIV TAR-Tat, O=C(CN1C(=O)CC(c2ccccc2)S(=O)(=O)c2ccccc21)c1ccccc1 (configuration not stated) is listed with -1.3

The main list resumes with the 4 entries that preceded the break.
SMILES | HIV TAR-Tat | CDC25B CDK2 inh
Cc1nc2c(ccc3nc(NC(=O)c4ccc(S(=O)(=O)N5CCCCC5C)cc4)sc32)s1 (configuration not stated) | / | -0.45
Cc1[nH]c2ccccc2c(=O)c1CN1CCCC(C)C1 (configuration not stated) | / | -0.65
O=C(CSc1ccc(-c2cccs2)nn1)N1CCc2ccccc21 | 0.88 | /
CCCCn1c(=O)c(C)c(C)c2ccccc21 | / | -1.4
COc1ccc(OC)c(CN2CCN(C3CCC(C)CC3)CC2)c1 (configuration not stated) | -0.65 | -0.69
Cc1[nH]nc(-c2ccc(S(=O)(=O)Nc3ccc(Br)cc3F)s2)c1C | -0.41 | /
Cc1ccc(NS(=O)(=O)c2cc(-c3cnc(C4CC4)o3)ccc2C)cc1 | 0.96 | /
O=C(Cn1ncn2c(cc3ccccc32)c1=O)NCCCN1CCOCC1 | 0.26 | -1.2
CCOC(=O)COc1ccc2c3c(c(=O)oc2c1C)CCC3 | / | -0.9
COc1ccc(-c2nn3c(C(F)(F)F)nnc3s2)cc1OC | -0.39 | -1.4
Cc1ccc(N2C(=O)N(CC(=O)C(C)(C)C)c3ccccc3S2(=O)=O)cc1C | 0.35 | /
Cc1nn(CC(=O)NCC2CCCO2)c(C)c1[N+](=O)[O-] (configuration not stated) | / | -1.3
Cc1cccn2c(=O)c(C(=O)NCCO)c(O)nc12 | 0.01 | -2.1
Cc1cc(C)nc(NS(=O)(=O)c2ccc(CC(C)C)cc2)c1 | 2.1 | -0.38
CCC1Oc2ccc(Cl)cc2N(CC(=O)N2CCN(c3cc(=O)n(C)c(=O)n3C)CC2)C1=O (configuration not stated) | 0.85 | /
Cn1c(=O)c2c(ncn2CC(=O)NCCN2CCOCC2)n(C)c1=O | 0.19 | -2.4
CCCc1occc(=O)c1/C=C/O | 1.6 | /
O=C(CN1C(=O)c2ccccc2S1(=O)=O)Nc1ccccc1Sc1ccccc1 | 2.3 | -3.3
O=C1c2cccc3cc([N+](=O)[O-])cc(c23)C(=O)N1CC1CCCO1 (configuration not stated) | / | -2.5
CCOc1ccc(C2Nc3c(C)cccc3-c3cc(C)nn32)cc1 (configuration not stated) | 0.01 | -0.74
Cc1ccsc1CCNC(=O)CCc1nnc2ccc(N3CCC(C)CC3)nn12 | 0.16 | /
Cc1nnc(SCc2cc(=O)n3c(nc4ccccc43)[nH]2)s1 | -1.7 | -0.37
O=C(Nc1ccc(F)cc1)NC1COc2ccccc2C1 (configuration not stated) | 0.42 | /
O=C(CSc1nnc2ccc3ccccc3n12)Nc1nsc(-c2ccccc2)n1 | / | -0.12
COc1ccc(/C=C/C(=O)N2c3ccccc3Sc3ccc(C(F)(F)F)cc32)cc1OC | / | -3.4
CN(C)CCn1cnc2scc(-c3ccccc3)c2c1=O | 0.43 | -1.6
Cc1sc2ncn(CC(=O)NCC(=O)NCC3CCCO3)c(=O)c2c1C (configuration not stated) | 1.5 | /
Cc1cc(/C=N/O)c(C)n1-c1ccc(-c2ccccc2)cc1 | / | -5.1
O=C1CC(c2cc(F)cc(F)c2)c2c(nc(SCc3ccccc3Cl)[nH]c2=O)N1 (configuration not stated) | -0.09 | -0.72
O=C(CCC(=O)N1c2ccccc2NC2=C(C(=O)CCC2)C1c1ccco1)NC1CCCCC1 (configuration not stated) | 3.6* | /
CCOC(=O)c1c(NC(=O)c2ccc3ncccc3c2)sc(C)c1C | / | -0.52
O=C(Nc1ccc2c(c1)N(Cc1ccccc1)C(=O)c1ccccc1S2)NC1CC1 | 0.15 | -2
O=C(COCc1cc(-c2cccs2)on1)Nc1ccc(F)cc1F | 0.58 | /
CNC(=O)Cn1ccc2cc(S(=O)(=O)N3CCCCC3)ccc21 | -0.1 | /
O=C(Cc1c(C(=O)O)[nH]c2ccc(Cl)cc12)Nc1ccc(F)cc1Cl | / | -1.8
COc1ccc(S(=O)(=O)c2nnn(-c3cccc(F)c3)c2C)cc1 | 0.69 | -0.83
CN1CCN(c2cc(NCCN3CCCC3)c3c4c(onc24)-c2ccccc2C3=O)CC1 | -3.5 | -2.2
COc1cc(NC(=S)NC(=O)c2ccccc2)cc(C(F)(F)F)c1 | / | -1.9
Cn1cc(CCC(=O)N2CCC(C(N)=O)CC2)c2ccccc21 | 1.8 | /
CC(C)Sc1ncc(Cl)c(C(=O)Nc2nc3ccc(S(C)(=O)=O)cc3s2)n1 | 2.4 | -1.3
Cc1ccc(O)c(-c2n[nH]c3c2C(c2ccc(F)cc2)N(Cc2ccco2)C3=O)c1 (configuration not stated) | -1.6 | -0.3
CN1CCN(c2nc(NCc3ccc(F)cc3)c3cnn(C)c3n2)CC1 | 1.4 | /
O=C1CC(c2ccc(O)cc2)c2cc3c(cc2N1)OCO3 (configuration not stated) | / | -1.1
Cc1cccc(-c2nn3c(=O)cc(CSc4nc5ccccc5[nH]4)nc3s2)c1 | -0.67 | 1.1
c1nc(NCCN2CCOCC2)c2sc3nc(N4CCOCC4)c4c(c3c2n1)CCCC4 | / | -0.18
COc1cccc(-c2noc(-c3ccco3)n2)c1 | 0.39 | -2.1
NC(=S)n1nc2ccc3nn(C(N)=S)nc3c2n1 | / | -1.4
COC(=O)C1C2C=CC3(CN(Cc4ccccc4)C(=O)C13)O2 (configuration not stated) | 0.57 | -0.51
Cc1c(-c2nc(-c3ccccc3Cl)no2)nnn1-c1ccccc1F | 0.43 | /
CN1c2ccccc2C(C)(C)C12CCCC(=O)N2 (configuration not stated) | / | 1.1
O=S1(=O)C[C@H](NCCCc2ccccc2)[C@@H](S(=O)(=O)c2ccc(Cl)cc2)C1 | -1.2 | -0.89
CN(CC(=O)N1CCN(c2ccccc2)CC1)S(=O)(=O)c1cccc2nsnc12 | -0.56 | -0.97
O=C(Nc1ccc(Cl)cn1)Nc1cccs1 | 0.55 | 2.2
Cc1cc(C)c2nc(NC(=O)c3csnn3)sc2c1 | -1.1 | -0.5
CCOC(=O)c1cnc2cc(-c3cccs3)[nH]n2c1=O | / | -2.5
Cc1cc(Nc2ccccc2)n2ncc(-c3ccc(F)cc3)c2n1 | -0.07 | 2.3
O=C(O)Cn1nc(N2CCN(c3ccc(F)cc3)CC2)ccc1=O | 0.87 | -1.5
Cn1cc2c(c1-c1ccccc1Br)c(=O)n(C)c(=O)n2C | -0.01 | -2.2
Cc1onc(-c2ccccc2)c1NC(=O)Nc1ccc(-n2ccc(C(F)(F)F)n2)cc1 | / | -3.5
O=C(CCc1nc(CSc2nc3ccccc3s2)no1)Nc1c(F)cccc1F | 0.82 | /
O=C(NC1CCCCC1)C1CC(c2ccc(F)cc2)=NO1 (configuration not stated) | 1.9 | -1.5
CC(C)CN(CC(C)C)S(=O)(=O)c1ccc(CN2C(=O)c3cccnc3C2=O)s1 | -0.49 | /
O=C(NCc1ccco1)C1CCCN(c2nc3cccnc3s2)C1 (configuration not stated) | 2.4 | /
COc1ccc(CN2CCc3nc(N4CCN(c5ccccn5)CC4)ncc3C2)c(OC)c1 | 1.8 | /
O=S(=O)(NN1CCOCC1)c1cc(S(=O)(=O)c2ccccc2)cs1 | / | -2.5
